# Source: PubChem BioAssay (National Center for Advancing Translational Sciences (NCATS))
# VACV mCherry inh: qHTS for Stage-Specific Inhibitors of Vaccinia Orthopoxvirus: mCherry Reporter Primary qHTS; AID 720579, 2013; Potency, µM (titrated, usually from 36.5 µM), for the others: at the top dose activity change, negative = inhibition, hits mostly inhibitors; 310,000 compounds, 0.63% hits; Vaccinia virus mCherry reporter infection, fluorescence; about a quarter of the inactives have no number; active = well fitted inhibition curve with a large enough effect; inconclusive = small, poorly fitted or top-dose-only effect; inactive = no such curve, though single readings can be large or run the other way; tested in A549 cells; further: nearly all actives have a fitted effect of over 35% in size; inactives centre near -10
# VACV Venus inh: qHTS for Stage-Specific Inhibitors of Vaccinia Orthopoxvirus: Venus Reporter Primary qHTS; Vaccinia virus Venus reporter expression, fluorescence; Potency, µM (doses to about 36.5 µM), for inactives: at the top dose activity change, negative = inhibition, actives largely listed as inhibitors; 330,000 compounds, 0.46% hits; AID 720580, 2013; active means well fitted inhibition curve with a large enough effect; inconclusive means small, poorly fitted or top-dose-only effect; inactive means no such curve, though single readings can be large or run the other way; tested in A549 cells; further: nearly all actives have a fitted effect of over 30% in size; inactives centre near -10
# An asterisk follows results filed as active; i = inactive; u = inconclusive; x = not tested or not shown. On the % scale 0 is the no-effect control and ±100 the full control effect; potency means the concentration at half of the fitted maximal effect.
SMILES,VACV mCherry inh,VACV Venus inh
Cc1cc(Nc2c(C)n(C)n(-c3ccccc3)c2=O)c2ccccc2n1,-7.5%,-7.3%
CC(C)(C)NC(=O)C(c1ccncc1)N(Cc1cccs1)C(=O)Cn1nnc(-c2cccs2)n1 (stereo not drawn),-8.4%,1.8%
COC(=O)c1cc2occc2n1CC(=O)Nc1ccc(C)cc1Cl,-5.8%,-10.9%
Clc1cccc(-n2cc(-c3ccccc3)c3c(N4CCCCC4)ncnc32)c1,5.1%,3.5%
COc1ccc(OC)c(/C=C2\SC(N3CCCC(C)C3)=NC2=O)c1 (stereo not drawn),u,u
C=CCn1c(=O)/c(=C/c2ccsc2)s/c1=C(\C#N)C(=O)NCCN1CCOCC1,i,-4.7%
COc1ccc(C2C=C(c3ccccc3)Nc3nnnn32)cc1 (stereo not drawn),-5.7%,5.1%
COc1ccc(NCCC#N)cc1,-3.0%,2.8%
CCCC(=O)OCC(=O)Nc1ccc([N+](=O)[O-])cc1C#N,-7.5%,-11.3%
CCOC(=O)c1ccc(NC(=O)CC2Sc3ccc(C(F)(F)F)cc3NC2=O)cc1 (stereo not drawn),u,u
CC(C)c1ccc(C2c3c(-c4ccccc4O)n[nH]c3C(=O)N2Cc2ccncc2)cc1 (stereo not drawn),-24.7%,-27.1%
CCN(C[C@H]1N[C@@](C)(C(=O)OC)[C@H]2C(=O)N(Cc3ccccc3)C(=O)[C@@H]12)S(=O)(=O)c1ccc(C(C)(C)C)cc1,-9.7%,u

# Exported bar-delimited: entries from further up
SMILES | VACV mCherry inh | VACV Venus inh
CC(C)(C)NC(=O)C(c1ccncc1)N(Cc1cccs1)C(=O)Cn1nnc(-c2cccs2)n1 (stereo not drawn) | -8.4% | 1.8%
COC(=O)c1cc2occc2n1CC(=O)Nc1ccc(C)cc1Cl | -5.8% | -10.9%
Clc1cccc(-n2cc(-c3ccccc3)c3c(N4CCCCC4)ncnc32)c1 | 5.1% | 3.5%
COc1ccc(OC)c(/C=C2\SC(N3CCCC(C)C3)=NC2=O)c1 (stereo not drawn) | u | u
C=CCn1c(=O)/c(=C/c2ccsc2)s/c1=C(\C#N)C(=O)NCCN1CCOCC1 | i | -4.7%
COc1ccc(C2C=C(c3ccccc3)Nc3nnnn32)cc1 (stereo not drawn) | -5.7% | 5.1%
COc1ccc(NCCC#N)cc1 | -3.0% | 2.8%

# (next part)
SMILES,VACV mCherry inh,VACV Venus inh
Cc1cc(C)n(CNc2nc(C(F)(F)F)cs2)n1,x,0.3%
C/C(=N\NC(=O)C1(C)CC1(Br)Br)c1ccc([N+](=O)[O-])cc1 (stereo not drawn),-11.3%,-8.6%
COc1ccc(C(=O)C2CCCN(Cc3ccc(C#CCCO)cc3)C2)cc1F (stereo not drawn),-17.5%,-15.3%
O=C(CSc1nccc(=O)[nH]1)Nc1ccc(F)c([N+](=O)[O-])c1,-9.8%,0.5%
CCOc1ccc(CNC(=O)C2CCN(C(=O)N3CC(CC)Oc4ccc(C)cc43)CC2)cc1OC (stereo not drawn),11.8%,-4.1%
CC(N)=Nc1ccc([N+](=O)[O-])cc1,-10.2%,-10.9%
Cc1ccc(NC(=O)Cn2c(=O)n(CCC(=O)NC3CCN(Cc4ccccc4)CC3)c(=O)c3ccccc32)cc1,-19.9%,-10.7%
O=C(Cc1ccccc1)Nc1cccnc1,i,-0.8%
CC(C(=O)Nc1cc(C(F)(F)F)ccc1Cl)n1nnc2sc3c(c2c1=O)CCCC3 (stereo not drawn),-16.4%,-14.8%
O=C(NC1CCN(S(=O)(=O)c2ccc(Cl)c(F)c2)CC1)c1cccnc1,i,-4.9%
CCc1ccc(NC(=O)CSc2nnc(-c3ccccc3)n2CC)cc1,-10.8%,-24.1%
NC(=O)C1CCN(C(=O)c2ccc3nc(N4CCCCC4)sc3c2)CC1,i,1.9%
COc1cc(/C=C/C(=O)Nc2cc(S(=O)(=O)N3CCOCC3)ccc2N2CCCC2)cc(OC)c1OC,i,-21.3%
CCN(CC)CCCNc1nc(-n2nc(C)cc2C)nc2sc3c(c12)CC(C)(C)OC3,u,u
COc1cccc(OC)c1C(=O)O/N=C(\N)c1ccncc1,u,-26.2%
C=CCn1c(=NC(=O)c2cc(Cl)sc2Cl)sc2cc(S(N)(=O)=O)ccc21,-16.1%,u
COc1cc(OC)cc(C(=O)N[C@H](C(=O)Nc2c(C)n(C)n(-c3ccccc3)c2=O)C(C)C)c1,-13.9%,-5.9%
CCN(CC)S(=O)(=O)c1ccc(N2CCOCC2)c(NC(=O)CN2C(=O)NC(C)(c3ccccc3)C2=O)c1 (stereo not drawn),-27.7%,-0.1%
Cc1cc(NC(=O)Nc2cccs2)no1,x,5.8%
CCOc1ccc(C2C(C(=O)Nc3ccccc3C)=C(C)Nc3nnnn32)cc1 (stereo not drawn),-4.8%,7.9%
NS(=O)(=O)c1ccc(-c2ccc(C=C3C(=O)c4ccccc4C3=O)o2)cc1,-7.4%,-1.0%
COc1ccc(NC(=O)CC2C(=O)N(C)C(=S)N2Cc2ccc3c(c2)OCO3)cc1 (stereo not drawn),-18.9%,-12.2%
O=C(NCc1ccc2c(c1)OCO2)c1nnc(Cc2ccc(F)cc2)o1,i,-4.8%
CCn1c(-c2ccc(-c3ccccc3)cc2)c[nH]c1=S,i,-13.9%
CC(C)N(C(=O)c1ccc(-c2ccccc2F)cc1)C(C)C,i,-7.5%
COc1cc(NC(=O)c2cc3ccccn3n2)cc(OC)c1OC,-7.2%,0.9%
CCOc1ccc(N2CC(C(=O)OC)CC2=O)cc1 (stereo not drawn),x,-13.4%
CCN(CC)C(=O)CSc1nc2ncc(Br)cc2[nH]1,x,-8.1%
O=C(NCc1ccccc1Cl)C1CCCN(C(=O)c2cnn(-c3ccc(F)cc3)c2-n2cccc2)C1 (stereo not drawn),-8.7%,-9.1%
COc1ccc(CNC(=O)COC(=O)c2cc(-c3ccc(Cl)s3)nc3ccccc23)cc1,x,-7.0%
CN1CCNC(=O)C1CC(=O)NCCc1ccccc1F (stereo not drawn),i,-6.3%
Cc1cc(S(=O)(=O)N2CCC3(CC2)OCCN3S(=O)(=O)c2cccs2)ccc1F,-2.9%,2.9%
CC(C)[C@H](NC(=O)c1ccccc1Br)C(=O)OCc1nc2ccsc2c(=O)[nH]1,i,-8.7%
Cc1ccc(C=C2SC(=S)N(CCCC(=O)Nc3cccc(C(=O)O)c3)C2=O)cc1,i,-2.9%
CCc1ccc(NC(=O)C2(c3cccs3)CCOCC2)cc1,-13.0%,1.4%
O=C(Nc1ccc2c(c1)OCO2)c1cc(-c2ccc(Br)cc2)on1,-9.5%,-3.7%

# 3 compounds out of the list, ordered by count of non-hydrogen atoms, high to low.
SMILES,VACV mCherry inh,VACV Venus inh
COc1ccc(CNC(=O)COC(=O)c2cc(-c3ccc(Cl)s3)nc3ccccc23)cc1,x,-7.0%
NC(=O)C1CCN(C(=O)c2ccc3nc(N4CCCCC4)sc3c2)CC1,i,1.9%
C/C(=N\NC(=O)C1(C)CC1(Br)Br)c1ccc([N+](=O)[O-])cc1 (stereo not drawn),-11.3%,-8.6%

# Next compounds.
SMILES,VACV mCherry inh,VACV Venus inh
CC1CN(CC(O)COC(c2ccc(Cl)cc2)c2ccc(Cl)cc2)CC(C)O1 (stereo not drawn),-5.9%,-19.7%
COc1ccc(-c2nc(CS(=O)CC(=O)NCCc3ccccc3)c(C)o2)cc1OC (stereo not drawn),-3.5%,-8.2%
O=C(O)COc1ccc(/C=C/C(=O)c2ccc3ccccc3c2)cc1,i,-9.8%
Cc1ccc(OCc2n[nH]c(=S)n2-c2ccc(Cl)cc2)cc1,-2.7%,-19.6%
Cc1ccc(S(=O)(=O)NC2CCOC(C)(C)C2)cc1 (stereo not drawn),-8.6%,-16.1%
COc1ccc(CCNC(=O)C(C)n2nc(C)c3sc4ccccc4c3c2=O)c(OC)c1 (stereo not drawn),-14.7%,-18.1%
Cc1ccc(NS(=O)(=O)c2ccc(C(=O)NCC(c3ccco3)N3CCCCC3)cc2)cc1 (stereo not drawn),-36.5%,-25.8%
CCCCNc1nc(-c2ccccc2)nc(-n2ccnc2)n1,0.6%,-1.5%
COc1cccc(CNn2cnnc2)c1OCc1ccccc1F,-1.0%,-5.6%
N#Cc1ccsc1NC(=O)CCc1ccccc1,u,-21.8%
NC(=O)C1CCN(C(=O)c2cc(S(=O)(=O)N3CCOCC3)ccc2Cl)CC1,-8.9%,-7.8%
CCn1ncc(CNC(=O)CCCSc2nc(-c3ccco3)cc(C(F)(F)F)n2)c1C,x,u
COCc1cc(C)nc2oc(C(=O)c3ccccc3)c(N)c12,-1.7%,-11.2%
COC(=O)c1c(C)[nH]c(C(=O)C(C)[N+]23CCN(CC2)CC3)c1C (stereo not drawn),i,-10.0%
CCCCn1cc(S(=O)(=O)c2ccc(OC)cc2)c(=O)c2cc(F)c(N3CCCC3)cc21,7.4%,-5.1%
O=C(N1CCCC1)C12CC3CC(CC(C3)C1)C2,-11.6%,-6.9%
CCc1cccc(NC(=O)C2CCCN2S(=O)(=O)c2ccc3c(c2)n(C)c(=O)c(=O)n3C)c1 (stereo not drawn),-11.7%,-0.1%
c1csc(-c2noc(CN3CCOCC3)n2)c1,-3.5%,7.4%
O=C(C1=C[C@@H](C2CC2)C[C@@H](OCc2ccc(CO)cc2)O1)N1CCOCC1,-9.8%,-2.7%
COc1ccc(NC(=O)COC(=O)CCC2CCCCC2)cc1,i,5.3%
O=C(O)CCCCCn1c(SCC(=O)c2ccc(O)c(O)c2)nc2ccsc2c1=O,-12.0%,-3.7%
COc1ccc(C(=O)c2oc3nc(C)cc(C)c3c2N)cc1,-19.5%,-16.0%
CCC1=C(OC(=O)N(CC)CC)N2C(=O)OC(=NCC3CC3)[C@]2(C)[C@H]2C1=CC[C@H]1C(=O)N(CC(=O)OC)C(=O)[C@H]12,i,-8.5%
Cc1ccc(S(=O)(=O)Nc2ccccc2CNc2c(C)n(C)n(-c3ccccc3)c2=O)cc1,-3.1%,-5.1%
COC(=O)c1c(C)[nH]c(C(=O)NCc2ccco2)c1C,-4.4%,-4.1%
COc1ccc(-c2noc(COc3cc(C)c(Br)c(C)c3)n2)cc1OC,-11.3%,-6.1%
Cc1cccnc1NC(=O)c1cc2ccccc2oc1=O,-22.5%,-6.9%
Cc1cccc(C)c1NC(=O)C(c1ccc(C(F)(F)F)cc1)n1c(=O)c(-c2ccco2)nc2ccccc21 (stereo not drawn),u,-5.2%
CCOC(=O)c1nc(NCc2ccccc2C)c2ccccc2n1,-5.7%,-9.7%
CSc1ccccc1OCc1cc(C(=O)NCc2cnc(C)cn2)no1,-1.5%,-16.9%
COc1ccc(OC)c(NC(=O)C(CC(=O)O)Cc2ccc(Cl)cc2)c1 (stereo not drawn),x,-22.6%
Cc1cccc(-c2nc3c(c(=O)c4ccccc4n3C)c(=O)n2-c2ccccc2)c1,i,10.7%
Cc1cccc(N2C(=O)CSC23CCCCC3)c1,-18.2%,1.4%
CCOC(=O)c1ncn2c1[C@@H]1CCNC1C(=O)c1cc(OC)ccc1-2 (stereo partly drawn),i,-11.6%
Nc1cccnc1S(=O)(=O)c1cccc(C(F)(F)F)c1,i,-18.2%
CCN(CC)C(=O)c1sc2c(c1C)c(=O)n(-c1ccccc1)c(=O)n2CC(=O)N(CC)c1cccc(C)c1,-9.4%,3.6%
COC(=O)c1cccc(C(=O)N2CCCC(Nc3ccc(C)c(C)c3)C2)c1 (stereo not drawn),u,-15.6%
O=C(c1ccc(F)cc1)N1CCOC(c2nc(-c3ccc(F)cc3)no2)C1 (stereo not drawn),i,-7.4%
Oc1cccc2cnccc12,u,u
CCOC(=O)N1CCN(c2c(NCCCN3CCCC(C)C3)c(=O)c2=O)CC1 (stereo not drawn),i,-15.3%
O=Nc1c(O)cc(O)c2ccccc12,-4.0%,6.8%
CN1CCc2ccccc2C1Cc1ccccc1NC(=O)c1sc2ccccc2c1Cl (stereo not drawn),u,u
O=c1ccn(-c2cccc(C(F)(F)F)c2)nc1-c1ccn(-c2cccc(Cl)c2)n1,x,u
Cc1cc(NC(=O)COCc2cc(-c3ccc(F)cc3)on2)ccc1Br,-11.0%,-7.0%
CC(=O)c1c(C)[nH]c(=S)c(C#N)c1-c1ccc(Cl)cc1,i,-7.4%
COCC(=O)N(Cc1cc2ccc(C)cc2[nH]c1=O)c1ccccc1C,-10.6%,-11.3%
CN(C1CCS(=O)(=O)C1)S(=O)(=O)c1ccc2ccccc2c1 (stereo not drawn),i,-14.3%
Cc1ccc2c(c1)[C@@H]1CN(C)CC[C@@H]1N2S(=O)(=O)c1ccc(F)cc1,u,-17.2%
CN(C)S(=O)(=O)c1cccc(C(=O)Nc2ccc3c(c2)CCC3)c1,-8.2%,-16.5%
COC(=O)c1cc(Br)c(=O)n(-c2cccc(F)c2)c1,-27.0%,-23.4%
O=S(=O)(NCCN1CCCC1)c1ccc(Cl)cc1,-13.2%,-12.1%
COc1ccc(N2CC(NC(=O)N3CCc4ccccc43)CC2=O)cc1OC (stereo not drawn),-8.1%,0.2%
Cc1ccc(N(CC(O)Cn2nc(C)cc2C)S(=O)(=O)c2ccc3ccccc3c2)cc1 (stereo not drawn),-9.4%,-24.7%
Cc1cccc(-c2nc(CCNC(=O)Cc3ccc(F)cc3)cs2)c1,-8.0%,-13.7%
